Screening results (PubChem)
FGF22 binding: binders of human FGF22 protein, primary screen, FGF22 synaptogenesis inhibitor project, biophysical, thermal shift, single point; actives 1.5% (n = 340,000); recombinant FGF22 thermal shift, SYPRO orange fluorescence; percent of sucrose octasulfate shift, DMSO zero; calls only at 9.99 µM; AID 651658, 2012;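 active = melting point raised past a set limit in the mean and every replicate; three in four hits are not shown here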
Target sequence (Q9HCT0 whole entry, looked up): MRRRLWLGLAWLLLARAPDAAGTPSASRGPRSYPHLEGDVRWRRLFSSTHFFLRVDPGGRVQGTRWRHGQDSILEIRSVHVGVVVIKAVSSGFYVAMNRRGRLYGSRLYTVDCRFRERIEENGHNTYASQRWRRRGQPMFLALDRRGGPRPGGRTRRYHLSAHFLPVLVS
HNF4A DNA FP: change in binding of human HNF4A to DNA, primary screen, biochemical, fluorescence polarization, FITC-DNA. AID 1224865, 2016. 1 h. activity change, % at 10 µM. actives 0.3% (n = 360,000); in the data active = activity change above about 30%, passing the limit was not always enough;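 note: controls were the assay level and a saturating level of protein; the project sought stronger binding though the title names inhibitors; some compounds called inactive have numbers as strong as hits; positive values seem to mean higher polarization but the record does not say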
Target sequence (P41235 whole entry, looked up): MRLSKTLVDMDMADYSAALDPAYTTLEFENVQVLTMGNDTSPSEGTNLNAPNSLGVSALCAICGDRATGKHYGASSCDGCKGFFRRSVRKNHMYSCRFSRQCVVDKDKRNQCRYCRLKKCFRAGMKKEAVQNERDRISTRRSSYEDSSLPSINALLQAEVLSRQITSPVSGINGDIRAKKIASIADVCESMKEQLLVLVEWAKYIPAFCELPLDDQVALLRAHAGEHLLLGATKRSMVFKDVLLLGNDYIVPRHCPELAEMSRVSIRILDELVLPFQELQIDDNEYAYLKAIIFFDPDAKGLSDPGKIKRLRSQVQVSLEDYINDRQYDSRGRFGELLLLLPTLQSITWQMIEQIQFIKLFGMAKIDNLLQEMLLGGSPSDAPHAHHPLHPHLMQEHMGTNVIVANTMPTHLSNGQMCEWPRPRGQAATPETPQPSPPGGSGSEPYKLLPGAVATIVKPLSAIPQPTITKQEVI
An asterisk follows results filed as active; i = inactive. Some of the compounds tested; count on the stated rates, not on these rows.

HNF4A DNA FP,FGF22 binding,SMILES
0.0,i,Cc1ccc(NC(=O)c2sc3ncn(CC(=O)N4CCN(c5ccccn5)CC4)c(=O)c3c2C)cc1
-1.2,i,C[C@H](CO)N1C[C@H](C)[C@H](CN(C)S(=O)(=O)c2cccs2)OCc2cnnn2CCCC1=O
-0.1,i,Cc1ccc([C@H]2C[C@H](n3cc(C4CC4)nn3)[C@@H](O)CN2C(=O)c2cccs2)cc1
0.4,i,C=Cc1ccc(CC2(C)C(=O)Nc3ccc(-c4cccnc4)cc32)cc1 (stereo unspecified)
-4.8,i,COc1ccc(NC(=O)c2cc(C3CCCCN3S(=O)(=O)c3ccccc3)on2)c(C)c1 (stereo unspecified)
-1.9,i,COC(=O)C(C(=O)OC)c1ccccc1NS(=O)(=O)c1c(C)cc(C)cc1C
1.6,i,Fc1ccc(-c2nc3c(Cl)cc(C(F)(F)F)cn3c2Cc2ccccc2)cc1
0.6,i,CCCCNC(=O)C[C@@H]1C[C@@]2(C(=O)OCC)CCCC=C2N(Cc2ccc3c(c2)OCO3)C1=O
2.9,i,C[C@H](O)CNC(=O)c1[nH]cnc1C(=O)Nc1cccc(Cl)c1
-2.3,i,CN(C(=O)COC(=O)Cc1ccc(Br)cc1)c1c(N)n(Cc2ccccc2)c(=O)[nH]c1=O
-0.9,i,O=C(O)C=Cc1c[nH]c2nccnc12
-0.7,i,Cc1ccnc(NCc2cc(Cl)cc(Cl)c2O)c1
1.1,i,O=C(Nc1ccc(F)c(Cl)c1)c1cc(C2CCCN(C(=O)c3cccs3)C2)on1 (stereo unspecified)
1.1,i,COc1cccc(-c2cnc(C(O)c3cccc(OC)c3)[nH]2)c1 (stereo unspecified)
0.1,i,COC(=O)C1(C(=O)OC)C2C(=O)C3C(C21)C3(C(=O)OC(C)(C)C)C(=O)OC(C)(C)C (stereo unspecified)

A section from the list above, for reference:
HNF4A DNA FP,FGF22 binding,SMILES
1.1,i,O=C(Nc1ccc(F)c(Cl)c1)c1cc(C2CCCN(C(=O)c3cccs3)C2)on1 (stereo unspecified)
1.1,i,COc1cccc(-c2cnc(C(O)c3cccc(OC)c3)[nH]2)c1 (stereo unspecified)
0.1,i,COC(=O)C1(C(=O)OC)C2C(=O)C3C(C21)C3(C(=O)OC(C)(C)C)C(=O)OC(C)(C)C (stereo unspecified)

Next entries:
HNF4A DNA FP,FGF22 binding,SMILES
1.0,i,O=C1NC[C@H](Cc2ccccc2)N(C[C@@H]2CCCN2C[C@H](Cc2ccccc2)N2C[C@H](Cc3ccc(O)cc3)N(CCc3ccccc3)C(=O)C2=O)C1=O
0.3,i,CC(C)Oc1cc(F)ccc1-c1cc(C(=O)Nc2ccc(F)cc2)[nH]n1
3.2,i,Nc1ccccc1SC(CC(=O)c1ccccc1)c1ccc([N+](=O)[O-])cc1 (stereo unspecified)
-1.5,i,COC(=O)[C@H](Cc1ccccc1)NC(=O)CC[C@H]1O[C@@H](n2ccc(=O)[nH]c2=O)[C@H](O)[C@@H]1O
4.0,i,COC(=O)c1ccccc1OCc1cc(=O)oc2ccc(C)cc12
0.1,i,COc1cc(S(=O)(=O)n2ccc(C)n2)c(C)cc1C
1.3,i,CN(C)CCCNc1nc2cc(-c3ccc(F)cc3)sc2c(=O)n1C
0.8,i,CC(C)NC(=O)C1(C)CCN1C(=O)c1ccc2c(c1)OCO2 (stereo unspecified)
0.5,i,COc1cccc(-c2n[nH]nc2C2=CC(=O)CC(C)(C)C2)c1
-1.8,i,CCOC(=O)C1(C)CCCN1C(=O)c1snnc1C (stereo unspecified)
-5.7,i,CC(C)c1ccc(C(=O)N2CCCC(c3cc(C(=O)NCc4ccccc4)no3)C2)cc1 (stereo unspecified)
0.8,i,O=S1(=O)CC(N2CCN(Cc3ccccc3F)CC2)CN1Cc1cn(Cc2cccc(Cl)c2)nn1 (stereo unspecified)
5.8,i,CCCc1nc2cc(C)c(Br)c(C)n2c1Cc1ccc(OC)cc1C
2.7,i,O=c1oc(-c2ccccc2)cc2ccccc12
1.9,i,COc1ccc(CCNS(=O)(=O)c2ccc3c(c2)CC(C)N3C(=O)C2CC2)cc1OC (stereo unspecified)
1.4,i,C[C@@H]1CN([C@H](C)CO)C(=O)CCCn2nncc2CO[C@H]1CN(C)Cc1cccc(C(F)(F)F)c1
-0.8,i,Cc1cscc1-c1ccc(C(=O)Nc2c(C)cccc2C)o1
4.5,i,NC(Cc1cnc[nH]1)c1csc(Nc2ccc(C(F)(F)F)cn2)n1 (stereo unspecified)
8.4,i,O=CNc1cc(-c2cccc(F)c2)cn2c(-c3ccc(F)c(Cl)c3)cnc12
-3.0,i,COc1ccc(NC(=O)C[C@H]2C(=O)N(c3ccc(Br)cc3)C[C@@H]2C)cc1
0.9,i,Nc1ccn([C@@H]2O[C@H](CNC(=O)[C@@H](Cc3cccnc3)NC=O)[C@@H](O)[C@H]2O)c(=O)n1
-2.0,i,COc1ccc(-c2csc(C(C)(NC(C)=O)c3ccc(OC)cc3)n2)cc1 (stereo unspecified)
0.2,i,O=C(CSc1nc2[nH]ncc2c(=O)[nH]1)Nc1cc(C(F)(F)F)ccc1Cl
4.9,i,CC(=O)c1cccc(Nc2ccc(Br)cc2)c1
0.2,i,COCCNc1nc(Oc2cncc(Cl)c2)c2sccc2n1
0.6,i,CC(=O)Nc1cncc(-c2cccc(C(=O)NCCN(C)C)c2)n1
-2.8,i,CN(C)c1ncnc2c1ncn2[C@H]1CN(Cc2cccnc2)C[C@@H](CO)O1
6.0,i,Cc1ccc(S(=O)(=O)NC(=O)C2(C)CCN2C(=O)c2ccccc2)cc1 (stereo unspecified)
2.1,i,Cc1nc(SCC(=O)Nc2sccc2C(N)=O)c2c(C)c(C)sc2n1
0.1,i,c1ccc2c(c1)nnn2Cn1nnc2ccccc21
4.4,i,COc1ccccc1Cn1c(C)c(C(=O)NCc2ccc3c(c2)OCCO3)sc1=O
-0.6,i,CN1OC[C@@H]2CN(C(=O)c3cccc4ccccc34)[C@H](c3ccc(N4CCCCC4)cc3)C[C@@H]21
-0.8,i,O=S1(=O)CCN(C2CCCCCCC2)CC1
3.9,i,COc1ccc2cc(/C(C)=N/NC(=O)c3cc(C)oc3C)ccc2c1
0.6,i,CCCNC(=O)C1(C)CCN(CCS(=O)(=O)c2ccc(C)cc2)C1 (stereo unspecified)
-0.1,i,CCc1nc2c(OCCC3CCCCC3)cccn2c1N(C=O)Cc1ccc(OC)cc1
12.6,i,CC(=O)NC(c1cccc(F)c1)c1nc(-c2cc(F)cc(Cl)c2)cs1 (stereo unspecified)
5.9,i,COC(=O)[C@@]1(Cc2ccc(OC)cc2)[C@H]2c3cc(C(=O)N4CCCC4)n(CCN4CCOCC4)c3C[C@H]2CN1C(=O)c1ccccc1
-0.9,i,O=C(O)c1ccccc1-c1ccccc1C(=O)Nc1ccc2c(c1)C(O)c1ccccc1-2 (stereo unspecified)
9.8,i,CN1CCN(c2ccc(-c3cc(NC=O)c4ncc(-c5ccccc5)n4c3)cc2)CC1
3.5,i,O=C(Nc1nnc([C@@H]2C[C@H](O)[C@@H](CO)O2)s1)Nc1ccccc1F
-3.7,i,C[C@H]1CN([C@@H](C)CO)C(=O)CCCn2nncc2CO[C@H]1CN(C)C(=O)c1ccncc1
-1.5,i,CC(C)C(=O)N1CCCC1(C)C(=O)NCc1ccccn1 (stereo unspecified)
3.0,i,C[C@@H]1CN([C@@H](C)CO)C(=O)c2cc(Br)cnc2O[C@H]1CN(C)C(=O)Nc1ccccc1
5.4,i,COc1cccc(OC)c1NC(=O)c1ccc(-c2cc(Cl)ccc2Cl)o1
0.4,i,CCN1C(=O)[C@H]2[C@@H](c3ccc(OC)cc3)N[C@]3(CCCN(Cc4ccco4)C3=O)[C@H]2C1=O
3.3,i,CCCCCCCCN1C(=O)[C@H](CC(=O)NCc2cccc(C(F)(F)F)c2)C[C@@]2(C(=O)OCC)CCCC=C12
0.3,i,CCc1nc2c(OCCOC)cccn2c1N(C)C(=O)Nc1ccccc1OC
0.3,i,Cc1ccc(S(=O)(=O)N(C)c2ccc3c(c2)C(=O)c2ccccc2-3)cc1
2.7,i,COCC(=O)Nc1ccc2c(c1)[C@@H]1C[C@H](CC(=O)OC)O[C@@H](CO)[C@@H]1O2
-0.4,i,CC1(C(=O)NS(=O)(=O)C2CC2)CCN(C(=O)COCc2ccccc2)C1 (stereo unspecified)
-2.0,i,C[C@@H]1CN([C@H](C)CO)C(=O)CCCn2nncc2CO[C@@H]1CN(C)C(=O)Nc1ccc(N2CCN(C)CC2)cc1
-1.1,i,CN(C)CCCNC(=O)c1cccc(-c2cnc3cccnn23)c1
8.1,i,COc1ccc([C@H]2CC(=O)C[C@@H](CCn3ccnn3)O2)cc1
-2.1,i,Cc1ccc(F)cc1C(=O)N1CCCCC1c1cc(C(=O)Nc2ccc(F)c(Cl)c2)no1 (stereo unspecified)
1.1,i,CC(=O)NC(C)(c1ccccc1)c1nc(-c2ccc(F)c(Cl)c2)cs1 (stereo unspecified)
3.9,i,CSc1ccc(Cn2c(C)c(C(=O)NCc3ccc4c(c3)OCCO4)sc2=O)cc1
-1.0,i,c1cnc2ccc(-n3ccnc3)cc2c1
3.8,i,Cc1ccc(S(=O)(=O)NCc2ccccc2)cc1C(=O)N1CCN(S(=O)(=O)c2ccccc2F)CC1
-0.4,i,CC(Sc1nc(N)cc(=O)[nH]1)C(=O)Nc1ccc(N2CCOCC2)cc1 (stereo unspecified)

One compound at a time, from the list above:
CCCCCCCCN1C(=O)[C@H](CC(=O)NCc2cccc(C(F)(F)F)c2)C[C@@]2(C(=O)OCC)CCCC=C12 across the screens: HNF4A DNA FP = 3.3; FGF22 binding = i
Cc1ccc(S(=O)(=O)NCc2ccccc2)cc1C(=O)N1CCN(S(=O)(=O)c2ccccc2F)CC1 across the screens: HNF4A DNA FP = 3.8; FGF22 binding = i
COc1ccc([C@H]2CC(=O)C[C@@H](CCn3ccnn3)O2)cc1 across the screens: HNF4A DNA FP = 8.1; FGF22 binding = i

Continuation.
HNF4A DNA FP,FGF22 binding,SMILES
4.2,i,COC(=O)c1ccc(Cn2c(C)c(C(=O)NCc3ccc(C#N)cc3)sc2=O)o1
-0.8,i,CC(C)(C)NC(=O)C1C(c2ccc(C(F)(F)F)cc2)=Nc2ccccc2N1C(=O)c1cccc2ccccc12 (stereo unspecified)
-0.3,i,O=C(Nc1cnns1)Oc1ccccc1
-6.1,i,C[C@H]1CN([C@@H](C)CO)C(=O)CCCn2nncc2CO[C@H]1CN(C)S(=O)(=O)c1cccc(F)c1
3.6,i,Nc1ncnc2c1ncn2C1OC(CO)C2OC21 (stereo unspecified)
2.8,i,CC(N)c1csc(Nc2ccc(C(=O)NCCCO)cn2)n1 (stereo unspecified)
0.0,i,N#CC(=Cc1ccnc2ccccc12)c1ccccc1
8.4,i,C[C@@H]1CN([C@H](C)CO)C(=O)CCCn2nncc2CO[C@H]1CN(C)C(=O)c1ccc2ccn(C)c2c1
-0.8,i,Cc1ccccc1-c1cnc(C(O)c2c(C)ccc3ccccc23)[nH]1 (stereo unspecified)
1.3,i,COc1ccc(NC(=O)C2C(c3ccc4c(c3)OCO4)=Nc3ccccc3N2C(C)=O)cc1 (stereo unspecified)
4.2,i,CN1C(=O)[C@H]2[C@@H](c3ccc(C(F)(F)F)cc3)N[C@]3(CCCN(CC4CCCCC4)C3=O)[C@H]2C1=O
5.9,i,CC(CC(=O)Nc1ccc2c(c1)c(=O)n(C)n2Cc1ccc(Cl)cc1)C(F)(F)F (stereo unspecified)
-2.7,i,CCCCn1nnnc1C(CCc1ccccc1)N1CCN(C/C=C/c2ccccc2)CC1 (stereo unspecified)
0.8,i,CCC(C)CN1C(=O)CSCC1(C)C(=O)NCc1ccccc1 (stereo unspecified)
1.2,i,CC(c1nc2ccccc2n1Cc1ccccc1)n1c(-c2cnccn2)nc2ccccc21 (stereo unspecified)
3.0,i,COc1ccc(C(C)(O)c2nc(-c3ccoc3)cs2)cc1 (stereo unspecified)
-7.1,i,CC1(Cc2cc(Cl)ccc2C(F)(F)F)C(=O)Nc2cc(C(F)(F)F)ccc21 (stereo unspecified)
-2.3,i,COc1ccc(-n2nnnc2C(c2ccnc3ccccc23)N2CCN(C/C=C/c3ccccc3)CC2)cc1 (stereo unspecified)
3.2,i,CCCCOCCCNC(=O)C[C@@H]1C[C@@]2(C(=O)OC)CCCCC=C2N(Cc2ccc3c(c2)OCO3)C1=O
0.4,i,COc1cccc(-c2cc3nc(NCc4ccccc4F)n(C)c(=O)c3s2)c1
-0.4,i,CCN(C(=O)c1c([N+](=O)[O-])cnn1C)c1ccccc1
-0.5,i,CC(C)n1nnnc1C1c2ccccc2C(=O)N1Cc1cccnc1 (stereo unspecified)
-0.4,i,Cc1ccc(OCCN2CCC2(C)C(=O)Nc2ccc3c(c2)OCO3)cc1 (stereo unspecified)
-4.3,i,CC(C)NC(=O)c1cc(C2CCCCN2S(=O)(=O)c2cccs2)on1 (stereo unspecified)
